High-throughput results from PubChem.
Yeast UUG start = alters start codon recognition fidelity in yeast | S. cerevisiae UUG-firefly luciferase reporter, luminescence/redox ratio | activity score, % at 18.7 µM | actives 0.13% (n = 350,000) | AID 602363;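 active means replicate mean at a twofold rise or more, about +100% in these data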;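 further: firefly luciferase made from a UUG start codon reports start codon fidelity; reporter light over untreated wells divided by growth signal over untreated wells; some hits fall short of that in this replicate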
PABP FP inh = PABP-poly(A) binding inhibition; PABP-poly(A) RNA binding, fluorescence polarization; inhibition, % at 35 µM; actives 1% (n = 290,000); AID 2014;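 active means 50% or more with normal probe brightness, or confirmed in later tests; inconclusive means above 50% with abnormal brightness, or retests that disagree; inactive means below 50% or failed in later tests; about a fifth of its hits are not listed in these tables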;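 further: calls also rest on retests at 20 µM and on dose response follow-up; controls were probe without protein and protein plus probe with vehicle; some compounds called inactive have numbers as strong as hits; many hits fall short of the cut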
Target sequence (P11940 whole entry, looked up): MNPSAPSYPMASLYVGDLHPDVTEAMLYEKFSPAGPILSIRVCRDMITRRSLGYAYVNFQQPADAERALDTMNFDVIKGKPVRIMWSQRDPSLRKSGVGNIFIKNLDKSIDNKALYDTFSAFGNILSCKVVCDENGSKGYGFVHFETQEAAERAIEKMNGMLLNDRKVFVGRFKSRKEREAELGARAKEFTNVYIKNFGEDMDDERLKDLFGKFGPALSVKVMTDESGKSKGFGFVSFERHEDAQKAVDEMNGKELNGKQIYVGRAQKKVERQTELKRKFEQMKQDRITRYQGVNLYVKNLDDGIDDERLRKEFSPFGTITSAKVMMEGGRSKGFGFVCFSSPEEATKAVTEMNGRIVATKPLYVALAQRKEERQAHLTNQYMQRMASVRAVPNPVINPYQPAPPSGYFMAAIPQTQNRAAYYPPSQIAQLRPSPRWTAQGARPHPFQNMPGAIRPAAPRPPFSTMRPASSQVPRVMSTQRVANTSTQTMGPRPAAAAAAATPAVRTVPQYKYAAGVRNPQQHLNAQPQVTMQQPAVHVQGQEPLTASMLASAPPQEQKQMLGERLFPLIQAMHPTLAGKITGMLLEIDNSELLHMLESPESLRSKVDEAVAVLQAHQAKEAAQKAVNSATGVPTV
CSC inhib = blocks cancer stem cells. AID 2717. cancer stem cell-like cells viability, luminescence. inhibition, % at 7.5 µM. actives 1.1% (n = 300,000);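 active means mean at 75% or more and at least half the replicates too; inconclusive means mean and replicates disagree; tested in HMLE shEcad cells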;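 further: 0% = median of negative and 100% = median of positive control wells; the first replicate is given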
MT1-MMP act inh = inhibitors of human MT1-MMP activation; P50281; GFP/RFP ratio change, % at 20 µM; actives 0.061% (n = 360,000); AID 651647; HT1080 RFP-PRO-GFP cells, GFP/RFP ratio fluorescence, overnight; percent of plate control window, DMSO zero;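 active means GFP/RFP ratio change of at least 30% with cell ATP level not reduced by more than half and red fluorescence within 50% of control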; further: strong numbers were not always called active
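Read-out: GFP/RFP fluorescence ratio; Test system: RFP-PRO-GFP reporter HT1080 cells; Compound dosing: single-point 20 µM compound, 1% DMSO; Times: overnight compound exposure at 37 °C.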
Rce1 inhib = blocks yeast Ras-converting enzyme. Q03530. yeast membranes, quenched prenylated peptide cleavage fluorescence. calls only. actives 0.27% (n = 290,000). AID 2563;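 active means fall in fluorescence gain of 50% or more versus controls, with final raw signal at or below 3038400; inconclusive means same 50% fall but final raw signal above 3038400; inactive means fall in fluorescence gain under 50%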;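 further: plate controls were neutral control wells for no effect and wells lacking membranes for full effect; tested at 10 µM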
Target sequence (Q03530 whole entry, looked up): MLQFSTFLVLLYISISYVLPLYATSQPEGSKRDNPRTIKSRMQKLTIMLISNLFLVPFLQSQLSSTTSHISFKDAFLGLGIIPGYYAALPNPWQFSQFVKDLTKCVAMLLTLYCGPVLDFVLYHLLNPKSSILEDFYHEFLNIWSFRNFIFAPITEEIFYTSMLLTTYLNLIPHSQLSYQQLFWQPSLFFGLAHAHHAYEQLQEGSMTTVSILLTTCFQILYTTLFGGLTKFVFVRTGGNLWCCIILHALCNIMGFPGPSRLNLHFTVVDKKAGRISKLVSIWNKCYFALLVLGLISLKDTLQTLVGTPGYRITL
HIV Env fusion = inhibitors of HIV Env-mediated cell fusion | HeLa-JRFL Env/CEM21 cell fusion, luciferase | inhibition, % at 12.3 µM | actives 1.1% (n = 360,000);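 active means mean replicate inhibition score of at least 50 and every replicate individually at or above 50; inconclusive means only one of the two criteria met; inactive means mean below 50 and not all replicates reaching 50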;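 further: 0% = plate neutral controls and 100% = maraviroc near 300 nM; one replicate is shown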
eIF4H inh = inhibitors of RNA binding by human eIF4H | Q15056 | eIF4H fluorescence polarization binding assay | inhibition, % at 35 µM | actives 0.94% (n = 290,000) | AID 2012;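 active means 50% or more with normal probe brightness, or confirmed in later tests; inconclusive means above 50% with abnormal brightness, or retests that disagree; inactive means below 50% or failed in later tests; about a fifth of its hits are not listed in these tables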;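 further: calls also rest on retests at 20 µM and on dose response follow-up; 0% = protein and probe with vehicle and 100% = probe without protein; strong numbers were not always called active; many hits fall short of the cut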
eIF4H inh retest = also measured in eIF4H inh; calls as there; inhibition, %; compound at 20 µM; confirmation average;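 mean of two retest wells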
PABP FP inh retest = also measured in PABP FP inh; calls as there; inhibition, %; compound at 20 µM; confirmation repeats;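 mean of two retest wells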
MT1-MMP act inh RFP = also measured in MT1-MMP act inh; calls as there; RFP signal change, %; measured here: RFP expression control read;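 0 = vehicle wells; hits needed this value within 50% of zero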
An asterisk follows results filed as active; i = inactive; ? = inconclusive; nt = no result given.

SMILES | Yeast UUG start | PABP FP inh | CSC inhib | MT1-MMP act inh | MT1-MMP act inh RFP | Rce1 inhib | HIV Env fusion | eIF4H inh | others
CC(CCc1ccccc1)NC(=O)C1CCN(S(=O)(=O)c2ccc(F)cc2)CC1 (stereo unspecified) | -14 | -5 | -10 | -3 | -5 | i | 6 | -9
O=C(Nc1ccccc1)N(Cc1ccccc1)CC(O)C(F)(F)F (stereo unspecified) | 1 | 4 | -6 | 7 | 1 | i | nt | 0
CCn1cc(C(=O)N[C@H](C(=O)NCCN2CCOCC2)C(C)C)c(=O)c2cc3c(cc21)OCO3 | -13 | 5 | 8 | 3 | 4 | i | 2 | 4
CCOC(=O)CN1CCS(=O)(=O)CC1 | nt | 6 | -5 | 1 | 3 | i | -16 | 5
COc1nc(C)nc2c1sc1nc3c(cc12)COC(C)(C)C3 | -20 | 2 | 13 | 6 | 2 | i | nt | -1
Cc1oc(-c2ccc(Cl)cc2)nc1CS(=O)CC(=O)NCCCN1CCOCC1 (stereo unspecified) | -14 | 18 | -17 | 1 | 3 | i | 1 | 0
COc1cc(NS(=O)(=O)c2ccc(Br)s2)cc(OC)c1 | 11 | 5 | 3 | -3 | -2 | i | -20 | 2
CCOC(=O)c1[nH]cnc1C(=O)N1CCC(C)CC1 | 2 | nt | -18 | 0 | -1 | nt | -1 | nt
COC(=O)CCC(=O)N1CCCC(C(=O)c2ccc(Cl)cc2C)C1 (stereo unspecified) | 11 | -4 | -1 | 1 | 1 | i | 1 | 0
O=C(CNc1ccccc1)Nc1cccc2ccccc12 | -9 | 7 | -5 | -1 | 0 | i | -17 | 3
CCC(c1nnnn1CCOC)N(Cc1cc2cc(C)c(C)cc2[nH]c1=O)CC1CCCO1 (stereo unspecified) | -16 | 9 | -7 | -6 | 0 | i | -42 | -3
Cc1ccc(C(=O)Nc2ccccc2Oc2ccccc2)o1 | -9 | 3 | 6 | -5 | -2 | i | 0 | 0
Cc1ccc(C)c(CN2CCC(CNC(=O)CCc3nnc4ccc(N5CCCCC5)nn34)CC2)c1 | -13 | 9 | -6 | -1 | 0 | i | 5 | -4
Cc1ccc(NC(=O)N2CCCC2C(=O)NCc2ccc(Cl)cc2)cc1 (stereo unspecified) | -33 | -2 | -23 | 4 | 3 | i | -5 | -10
CCc1ccccc1NS(=O)(=O)c1ccc2[nH]cc(C(=O)NC3CCCC3)c(=O)c2c1 | nt | 0 | 29 | -7 | -11 | i | 19 | -8

Random excerpt: two records from the list.
SMILES | Yeast UUG start | PABP FP inh | CSC inhib | MT1-MMP act inh | MT1-MMP act inh RFP | Rce1 inhib | HIV Env fusion | eIF4H inh | others
CCn1cc(C(=O)N[C@H](C(=O)NCCN2CCOCC2)C(C)C)c(=O)c2cc3c(cc21)OCO3 | -13 | 5 | 8 | 3 | 4 | i | 2 | 4
CCOC(=O)CN1CCS(=O)(=O)CC1 | nt | 6 | -5 | 1 | 3 | i | -16 | 5

Returning to the listing; the 3 compounds before the break are reprinted first.
SMILES | Yeast UUG start | PABP FP inh | CSC inhib | MT1-MMP act inh | MT1-MMP act inh RFP | Rce1 inhib | HIV Env fusion | eIF4H inh | others
Cc1ccc(C)c(CN2CCC(CNC(=O)CCc3nnc4ccc(N5CCCCC5)nn34)CC2)c1 | -13 | 9 | -6 | -1 | 0 | i | 5 | -4
Cc1ccc(NC(=O)N2CCCC2C(=O)NCc2ccc(Cl)cc2)cc1 (stereo unspecified) | -33 | -2 | -23 | 4 | 3 | i | -5 | -10
CCc1ccccc1NS(=O)(=O)c1ccc2[nH]cc(C(=O)NC3CCCC3)c(=O)c2c1 | nt | 0 | 29 | -7 | -11 | i | 19 | -8
O=C(OCCN1C(=O)c2ccccc2C1=O)c1cc(=O)[nH]c2ccccc12 | -19 | -6 | nt | 0 | 4 | i | nt | -10
CCOc1ccccc1N1CCN(C(=O)c2cc3c(s2)CCC3)CC1 | -6 | 64 | -19 | 3 | 3 | i | nt | 8 | eIF4H inh retest=4;PABP FP inh retest=4
CCCCn1c(N)c(N(CC(C)C)C(=O)CSCC(=O)Nc2ccc(OC)cc2)c(=O)[nH]c1=O | 2 | nt | -12 | -1 | 1 | i | -11 | nt
O=C(Nc1nc(-c2ccccc2)cs1)c1ccc2c(c1)S(=O)(=O)c1ccccc1C2=O | nt | 1 | 34 | 2 | -3 | i | -1 | -13
COc1ccc(NC(=O)CNC(=O)CC23CC4CC(CC(C4)C2)C3)c(OC)c1 | 12 | nt | nt | 5 | 2 | nt | 17 | nt
Cc1sc2nc(CSC(C)C(=O)Nc3ccc(Cl)cn3)[nH]c(=O)c2c1C (stereo unspecified) | -5 | nt | 0 | -8 | -8 | nt | 26 | nt
COc1ccc(-c2nc3ccccc3n2CCC(C)C)cc1OC | nt | -1 | 8 | 2 | -4 | i | nt | 3
Cc1ccn(S(=O)(=O)c2ccc(N3CCCC3=O)cc2)n1 | -12 | 7 | -14 | nt | nt | i | 0 | 3
Cc1ccc(N(C)S(=O)(=O)c2cccc(C(=O)NC3=NCCS3)c2)cc1 | nt | -9 | 6 | 7 | -1 | i | -28 | -3
CCCc1[nH]nc2c1C1(CCN(C(=O)OCc3ccccc3)CC1)C(C#N)=C(N)O2 | nt | -5 | 1 | -6 | 1 | i | 28 | -8
CN1CCc2c(OCC(=O)N3CCC(Cc4ccccc4)CC3)cccc2C1=O | nt | -2 | 33 | -5 | -23 | i | 29 | -5
COC(=O)C(C(=O)Nc1nc2ccccc2s1)C1CCCC1 (stereo unspecified) | -9 | -4 | 4 | -2 | -1 | i | 15 | -4
COc1cccc(C(=O)CC(C#N)c2ccc(F)cc2)c1 (stereo unspecified) | -6 | -8 | -11 | -4 | -2 | i | nt | -17
CCOc1ccc(N2CC(C(=O)Nc3ccncc3)CC2=O)cc1 (stereo unspecified) | -14 | -7 | nt | 2 | 4 | i | 20 | -9
COC(=O)c1ccccc1NC(=O)NC1CCCCC1 | nt | 3 | -1 | -4 | -1 | i | 2 | -2
Cc1cc(C)cc(OC(C)C(=O)NCCCn2ccnc2)c1 (stereo unspecified) | nt | -4 | -10 | 1 | 0 | i | 8 | -5
Cc1cc(C)c(C#N)c(SC(F)F)n1 | -18 | -4 | -10 | 0 | 12 | i | -47 | -3
Cc1ccc(-n2c(SCC(=O)Nc3ncc(Cl)cc3Cl)nc3ccccc32)cc1 | -14 | 21 | 53 | -5 | -11 | i | 28 | 7
Cc1cc(C)n(-c2nc3ccccc3c(=O)n2OCC(N)=O)n1 | -5 | -14 | -19 | 6 | 7 | i | -91 | -7
O=C(NCc1cccnc1)c1cn(-c2ccccc2)nc1-c1ccccc1 | nt | 8 | -3 | -3 | -4 | i | -5 | -3
CC(C)=C1Cc2ccccc2C1=O | nt | -5 | -5 | 1 | 5 | i | 2 | -13
CCC1CCCCN1C(=O)c1cc(-c2ccc(Cl)c(Cl)c2)on1 (stereo unspecified) | -16 | 1 | 8 | 4 | -3 | i | -80 | -4
CN(Cc1cccc(C(F)(F)F)c1)Cc1nc(-c2cnccn2)no1 | -3 | -1 | -13 | -3 | 0 | i | 6 | -3
CCOc1ccc(NS(=O)(=O)c2ccc(N)cc2)cc1 | -26 | 4 | -18 | 0 | 4 | i | -145 | 2
O=C(NCc1ccc(Cl)cc1)c1cccc2c1C(=O)N(CC1CCCO1)C2 (stereo unspecified) | -3 | 6 | nt | 2 | -4 | i | 15 | -5
O=C1C=CC(=O)N1c1ccc2ccccc2c1 | -26 | nt | nt | -3 | 2 | nt | 1 | nt
COc1ccc(Cc2nnc(NC(=O)c3ccco3)s2)cc1OC | -13 | -2 | -4 | 0 | -1 | i | 1 | -7
CCOc1ccccc1N(CC(=O)NC1CCCC1)S(=O)(=O)c1ccc(C)cc1 | 1 | 8 | 2 | 1 | 0 | i | 11 | 1
CCCn1c(N)c(C(=O)CSc2ncn[nH]2)c(=O)n(C)c1=O | -7 | nt | -8 | 1 | 2 | nt | -1 | nt
Cc1cnc(NC(=O)c2ccc(-c3ccc([N+](=O)[O-])cc3)o2)s1 | -15 | nt | -12 | 12 | 6 | nt | -8 | nt

Four compounds from above, arranged by formula weight, smallest number first.
SMILES | Yeast UUG start | PABP FP inh | CSC inhib | MT1-MMP act inh | MT1-MMP act inh RFP | Rce1 inhib | HIV Env fusion | eIF4H inh | others
O=C1C=CC(=O)N1c1ccc2ccccc2c1 | -26 | nt | nt | -3 | 2 | nt | 1 | nt
Cc1cc(C)n(-c2nc3ccccc3c(=O)n2OCC(N)=O)n1 | -5 | -14 | -19 | 6 | 7 | i | -91 | -7
O=C(NCc1cccnc1)c1cn(-c2ccccc2)nc1-c1ccccc1 | nt | 8 | -3 | -3 | -4 | i | -5 | -3
Cc1ccc(-n2c(SCC(=O)Nc3ncc(Cl)cc3Cl)nc3ccccc32)cc1 | -14 | 21 | 53 | -5 | -11 | i | 28 | 7

Additional results
SMILES | Yeast UUG start | PABP FP inh | CSC inhib | MT1-MMP act inh | MT1-MMP act inh RFP | Rce1 inhib | HIV Env fusion | eIF4H inh | others
NC(=O)Nc1ccc(Nc2ccccc2)cc1 | nt | -5 | 12 | 5 | 3 | i | -12 | -14
Cc1cc(NC(=O)c2ccc(S(=O)(=O)N(C)CC3CCCO3)cc2)no1 (stereo unspecified) | nt | -8 | -9 | 1 | 2 | i | 5 | -5
COC(=O)c1cc(-c2ccc(S(=O)(=O)N3CCCCC3)cc2)c(C(F)(F)F)s1 | nt | 0 | 7 | 2 | -11 | i | -10 | -5
CCNC(=O)C12CCC(C)(C(=O)C1Br)C2(C)C (stereo unspecified) | 3 | 8 | 2 | 1 | 0 | i | 5 | 9
COc1ccnc(Oc2ccccc2)c1-c1ncn[nH]1 | nt | -6 | 3 | -2 | 1 | ? | 13 | -8
Cc1nc(NC(=O)CN2CCN(c3cccc(Cl)c3)CC2)sc1C(=O)N(C)C | 1 | 2 | -18 | -3 | 1 | i | 13 | -6
Cc1sc2ncnc(SCC(=O)N3CCOCC3)c2c1C | 1 | nt | -2 | 2 | 6 | nt | nt | nt
Cc1cn(C2OC(COC(=O)c3ccccc3)C(O)C2Cl)c(=O)[nH]c1=O (stereo unspecified) | 42 | -2 | 12 | -1 | 0 | i | 13 | -3
COCCNC(=S)N1CCC(C(=O)c2ccc3c(c2)OCCO3)CC1 | nt | -22 | -3 | -1 | -4 | i | -11 | -5
Cc1nnc(SCC(=O)Nc2cccc(C(F)(F)F)c2)[nH]c1=O | -13 | 1 | 7 | -2 | -1 | i | nt | 8
COc1ccc(Br)cc1C1NC(=O)NC(C)=C1C(=O)N(C)C (stereo unspecified) | -4 | -4 | -6 | 0 | 6 | i | 11 | -9
COc1ccc(/C=N/Nc2cc(C)nc(-n3nc(C)cc3C)n2)cc1 | nt | -1 | 19 | -2 | -6 | i | 32 | -2
CCOc1ccc(C2/C(=C(/O)c3ccc4c(c3)CC(C)O4)C(=O)C(=O)N2CC2CCCO2)cc1 (stereo unspecified) | 7 | 12 | -4 | 2 | 2 | i | 0 | 17
CCN(CC)c1c(C)nc2ccc(C(=O)N3CCN(C(=O)c4ccco4)CC3)cn12 | -10 | nt | nt | 2 | 7 | nt | -19 | nt
CN1CCN(c2ccc(NC(=O)c3ccc(Cl)cc3Cl)cc2)CC1 | -14 | -3 | 33 | 2 | -1 | i | -15 | -2
COC(=O)C1=C(C)N2C(=O)CSC2=NC1c1ccc2c(c1)OCO2 (stereo unspecified) | nt | 2 | -8 | nt | nt | i | nt | -1
O=C(Nc1ccccc1NC(=O)c1c(F)cccc1F)c1c(F)cccc1F | 1 | 8 | -5 | -1 | 3 | i | 12 | -4

Some of the compounds tested (hit frequency here may not be typical).
